Source: PubChem BioAssay (several laboratories)
Sa RN4220 lethal – S. aureus RN4220 growth inhibition. AID 1259311. 0.33% of 330,000 active. inhibition, % (test concentration not listed). OD600, 16 h;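 active = z-score of -3 or lower and OD600 up to 0.18 on both plates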;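 also: plate controls were untreated cells for no effect and reference antibiotic for full effect; stock transfer was 100 nL into about 80 µL; one replicate is shown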
PrP UTR inh – inhibition of PrP 5' UTR reporter expression; cell-based PrP 5' UTR mRNA reporter, plate reader; 0.35% of 340,000 active; inhibition, % (test concentration not listed);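 active = every replicate at 50% or more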;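 also: 0 = median of the neutral control wells; tested in H4 reporter cells; numbers are from one replicate; inactives centre near -14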
Mtb hypoxia inh – inhibitors of hypoxia-regulated fluorescent reporter in Mycobacterium tuberculosis. M. tuberculosis hypoxia-regulated fluorescent reporter, fluorescence. fluorescence inhibition, % (no concentration beside the values). 0.1% of 300,000 active;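 active = 35 to 45% if threefold the growth effect, above 45% if 1.5-fold the growth effect; inactive = the rest, general growth blockers included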;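 also: wells of about 50 µL received 100 nL stock; 0% = vehicle wells and 100% = reference inhibitor wells; whole bacteria with a GFP reporter of the hypoxia response; strong numbers were not always called active; many hits fall short of the cut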
Sa ugtP lethal – compounds lethal to S. aureus RN4220 ugtP deletion mutant; OD600 growth, 16 h; some inactives read as strong as hits; growth inhibition, % (concentration not given with the values); 0.54% of 330,000 active; AID 1259309;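 active = z-score under -3 and OD600 up to 0.15 on both plates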;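 also: plate controls were untreated wells for no effect and antibiotic for full effect; wells of about 80 µL received 100 nL stock; the first replicate is given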
Bead autofluor – counter-screen for toxin protease inhibitors: compound fluorescence; compound autofluorescence counterscreen, microsphere flow cytometry; stronger effect = higher value; fluorescence intensity (test concentration not listed); 3.1% of 360,000 active; AID 624483;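 active = at least 3 SD above the mean of all compounds, about 16000 in these data; inconclusive = too few beads counted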;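 also: 100 nL of 1 mM stock went into each well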
BJeLR viability – kills HRASV12-expressing BJeLR cells; 0.17% of 300,000 active; inhibition, % (no concentration beside the values); BJeLR (HRASV12) viability, CellTiter-Glo ATP luminescence, 48 h; reference of the scale not given here;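 active = replicate mean above 50%; inconclusive = above 50% but judged a plate artefact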;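 also: 50 nL library stock added to about 25 µL; numbers are from one replicate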
Mtb hypoxia inh growth – also measured in Mtb hypoxia inh; calls as there; growth inhibition, %; measured here: M. tuberculosis growth (absorbance);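 0% = vehicle and 100% = reference antibiotic; read after six days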
* marks the source's active call; other numbers are inactive results; u = inconclusive; x = not tested or not shown; & = joins results of further samples.

SMILES	Sa RN4220 lethal	PrP UTR inh	Mtb hypoxia inh	Mtb hypoxia inh growth	Sa ugtP lethal	Bead autofluor	BJeLR viability
COc1cc(NC(=O)c2sc(C)nc2C)c(OC)cc1NC(=O)c1ccccc1	7.1	-11	-9	10	-1	3490	3
C/C=C/Cn1c(Br)nc2c1c(=O)[nH]c(=O)n2C	1.6	6	-5	13	-4	22506*	-7
Cc1cc(C)nc(N2CCCC(C(=O)Nc3ccc4c(c3)OCCO4)C2)n1 (stereo not drawn)	3.2	-6	6	1	-1	11029	-2
CCC(C)[C@H](NC(=O)Nc1ccc2c(c1)OCCO2)C(=O)OC (stereo partly drawn)	1.8	-9	-1	7	-2	6011	2
Cn1cc(CN(CCCN2CCOCC2)C(=S)Nc2cccc(Cl)c2)c2ccccc21	x	-2	x	x	x	6937	11
COc1ccc(-n2c(C)cc(C(=O)COC(=O)c3cc(OC)c(OC)cc3NC(=O)c3cccs3)c2C)cc1	6.5	-27	6	2	-10	2449	3
COCCNC(=O)C1(S(=O)(=O)c2ccccc2)CC=CC1	5.8	-26	-1	5	4	3113	-16
O=C(CS(=O)(=O)c1cn(CC(=O)N2CCOCC2)c2ccccc12)Nc1ccccc1	3.4	1	-8	4	9	x	1
CCOc1cc(/C=N/NC(N)=O)cc(Br)c1OCc1ccccc1	x	-3	x	x	x	5430	-5
COc1ccc(NC(=O)CCN(c2ccc(OC)cc2)S(=O)(=O)c2ccc(C)c(C)c2)cc1	-4.0	-2	7	6	-4	4455	x
CCOc1ccccc1NC(=O)Cn1nnc(C(=O)NCc2ccc3c(c2)OCO3)c1N	0.9	-23	3	-9	0	5777	3
COC(=O)c1ccc(Cn2nc(-c3ccc(C)cc3)ccc2=O)cc1	1.1	-20	6	-4	6	3554	-8
Cc1ccc(C(=O)NC(=S)Nc2ccc3c(c2)OCCO3)c(C)c1	-0.5	-49	-1	10	45	x	-3
Cc1ccccc1Oc1cc(NC(=O)CCCn2nc(C)c([N+](=O)[O-])c2C)cc([N+](=O)[O-])c1	-2.9	0	-10	-8	-31	6970	-1
CCc1c(C)sc2nc3c(C(=O)N4CCOCC4)cc(C(=O)c4cc(F)ccc4O)cn3c(=O)c12	-21	-30	-1	3	-3	4298	1
CC1CC1C(=O)Nc1cc(C(F)(F)F)ccc1N1CCOCC1 (stereo not drawn)	2.4	-3	5	4	9	4526	8
CCOc1ccccc1NC(=O)Nc1ccc2c(c1)OCO2	0.6	-15	8	8	-3	6030	-2
CCc1noc(C)c1C(=O)Nc1cc(S(=O)(=O)N2CCOCC2)ccc1N1CCN(CC)CC1	1.4	-21	0	-6	1	x	-10
COc1cc([N+](=O)[O-])ccc1NC(=O)NCc1cccnc1	0.5	-8	0	-4	3	6107	2
CN(Cc1ccco1)C(=O)c1ccc(S(=O)(=O)N2CCCCCC2)cc1	-3.1	-8	-2	-4	-2	2843	x
COc1ccc(C)cc1-n1nnnc1SCC(=O)c1ccc2c(c1)OCCO2	9.0	5	15	9	-14	3744	1
Cc1ccc(C(=O)C2CCN(CC(=O)N3CCN(c4ccc(F)cc4)CC3)CC2)cc1	-0.5	-15	-10	-13	-8	4914	x
Cc1cccc(N(C(=O)c2snc(C(N)=O)c2N)C(C(=O)NC2CCCC2)c2ccncc2)c1 (stereo not drawn)	4.2	-36	12	2	9	3812	-8
O=C(NN=C1CCCC1)C(=O)Nc1cccc(C(F)(F)F)c1	-1.7	-24	x	x	-7	4270	-6
O=C1CCCc2oc3ccc(O)cc3c21	7.8	-28	3	3	2	3227	0
The listing continues:
SMILES	Sa RN4220 lethal	PrP UTR inh	Mtb hypoxia inh	Mtb hypoxia inh growth	Sa ugtP lethal	Bead autofluor	BJeLR viability
COc1ccccc1NC(=O)c1ccc(NS(=O)(=O)c2ccc(F)c(Cl)c2)cc1	-1.9	-26	2	10	2	2108	-15
CN(C)Cc1ccccc1Sc1cccc2ccccc12	-0.6	-16	6	0	7	2864	22
O=C(CSc1nc2[nH]ncc2c(=O)[nH]1)N1CCCC1	2.8	-25	1	1	8	2227	-13
CCCNC(=O)NNC(=O)c1ccc(F)cc1	7.2	-6	12	15	3	3805	9
COC(=O)c1c2c(nc3ccccc13)CCC2	4.1	-6	0	6	-1	u	3
NC(=O)c1ccc(NC(=O)COC(=O)c2cc(S(=O)(=O)N3CCOCC3)ccc2N2CCCCC2)cc1	4.8	-28	-2	4	8	4824	-1
O=C(c1ccc(Cl)c(S(=O)(=O)N2CCCC2)c1)N1CCN(c2ccc(F)cc2)CC1	1.5	-21	-5	14	-2	4511	0
COC(=O)c1sc(-c2ccc(Cl)cc2)cc1NC(=O)CSCC(=O)O	18	-13	5	7	-9	2819	4
COc1cc(O)c(C(CCN2CCCC2)c2ccc(N(C)C)cc2)c(OC)c1 (stereo not drawn)	6.0	-23	6	6	2	5236	-6
O=C(c1ccccc1Cl)N1N=C(c2ccc(Br)cc2)CC1c1nc2ccccc2[nH]1 (stereo not drawn)	-13	-33	-4	6	18	4125	-19
Clc1ccc(SCc2cc(Cl)nc(-c3ccccc3)n2)cc1	-9.1	-28	-6	-7	36	11899	-7
COc1cccc(CN2CCNC(=O)C2CC(=O)N2CCCCO2)c1OC (stereo not drawn)	0.7	-3	5	5	-1	2222	-8
O=C(CCN1C(=O)C2C3CCC(C3)C2C1=O)Nc1ccccc1C(F)(F)F (stereo not drawn)	-2.9	-24	2	10	1	2105	6
CCOC(=O)C1=C(C)NC(C)=C(C(=O)OCC)C1C(=O)OCC(=O)N(CC)C1CCS(=O)(=O)C1 (stereo not drawn)	-3.0	-16	14	9	0	4087	-1
COc1cccc(/C=N/NC(=O)C(=O)N2CCCCCC2)c1O	x	3	x	x	x	u	-7
Nc1nc2ncc(-c3ccsc3)c(N)n2n1	4.1	-40	12	7	-1	2109	-2
Cc1cc(C(F)(F)F)c(C#N)c(SCC(=O)NC(C)(C)C)n1	-0.3	-9	2	6	-2	25162*	2
Cn1ncc(C(=O)Nc2ccc(OC(F)(F)F)cc2)c1-n1cccc1	7.6	-11	2	6	13	6084	-9
CC(=O)Nc1ccc(CN2CCCCCCC2)cc1	1.7	-31	7	-11	1	6391	-5
Cc1ccc(NS(=O)(=O)c2cccc(C(=O)NCC(c3cccs3)N3CCOCC3)c2)cc1 (stereo not drawn)	3.5	-14	4	4	10	7685	x
NC(=O)c1ccsc1NC(=O)CSc1nc2ccccc2c(=O)n1CCCO	1.1	2	2	-2	0	9041	-1
O=S(=O)(c1ccc(Oc2ccc(S(=O)(=O)N3CCOCC3)cc2)cc1)N1CCOCC1	5.9	-20	x	x	7	2113	0
Cc1nc(S(=O)(=O)N2CCOCC2)c(C#N)c(C)c1Cl	1.5	-3	x	x	5	3099	7
O=C(NNc1ccc(-c2csnn2)cc1)c1ccccc1C(F)(F)F	6.4	-13	15	4	15	3810	0
CC1(C)CC(=O)C=C(Nc2ccccc2O)C1	-3.8	-9	11	7	-2	2848	-8

Two neighbouring entries already listed:
SMILES	Sa RN4220 lethal	PrP UTR inh	Mtb hypoxia inh	Mtb hypoxia inh growth	Sa ugtP lethal	Bead autofluor	BJeLR viability
NC(=O)c1ccc(NC(=O)COC(=O)c2cc(S(=O)(=O)N3CCOCC3)ccc2N2CCCCC2)cc1	4.8	-28	-2	4	8	4824	-1
O=C(c1ccc(Cl)c(S(=O)(=O)N2CCCC2)c1)N1CCN(c2ccc(F)cc2)CC1	1.5	-21	-5	14	-2	4511	0

Carrying on:
SMILES	Sa RN4220 lethal	PrP UTR inh	Mtb hypoxia inh	Mtb hypoxia inh growth	Sa ugtP lethal	Bead autofluor	BJeLR viability
O=[N+]([O-])c1ccc(S(=O)(=O)N2CCN(Cc3c[nH]c4ccccc34)CC2)cc1	8.7	-2	-8	0	5	4283	-1
Cc1nc(NC(=O)COC(=O)CCc2nc3ccccc3s2)c(Cl)cc1Cl	-4.6	-22	-6	-7	-1	1986	1
O=C(Nc1ccc(N2CCN(C(=O)c3ccc(Cl)cc3)CC2)cc1)c1cccs1	-1.1	3	-8	2	-1	u	4
CCCn1c(SCC(=O)NCCCN2CCCC2=O)nc2ccccc2c1=O	4.3	1	3	6	-2	4723	x
C=CCNc1nc(-c2ccccn2)nnc1-c1ccccc1	31	-53	x	x	0	8106	-26
CCC1Oc2ccc(C)cc2N(CC(=O)NCCC2=CCCCC2)C1=O (stereo not drawn)	1.9	-88	8	12	-10	18757*	-1
O=C(NCc1cccs1)C1CCCN(c2nc3ccccc3o2)C1 (stereo not drawn)	5.3	-16	1	-3	15	16144*	0
CC1Cc2ccccc2N1C(=O)COC(=O)c1ccc(N(C)C)cc1 (stereo not drawn)	-0.6	-14	7	7	3	8033	x
COc1cc(CC(=O)OCC(=O)Nc2ccc(N3CCOCC3)cc2)cc(OC)c1OC	5.4	-2	4	9	-2	4310	5
Cc1ccc(NC(=O)c2ccc(F)cc2)cc1S(=O)(=O)N1CCCCCC1	6.0	-28	-7	6	-7	2311	-3
Fc1ccc2[nH]c3c(N4CCN(c5ccccc5)CC4)ncnc3c2c1	-17	-19	10	9	-24	2874	8
CC(=O)N1CCN(CC(=O)Nc2ccccc2Sc2ccc(Cl)cc2)CC1	3.3	-2	12	9	-1	2375	1
CCOC(=O)c1sc(=NC(=O)c2cc(OC)c(OC)c(OC)c2)n(C)c1C	4.3	-11	3	16	6	12263	-5
C/C(=N\NC(=O)c1nn(C)cc1Cl)c1ccncc1	x	-24	x	x	x	2011	0
COc1cccc(NC(=O)NC2CCCc3ccccc32)c1 (stereo not drawn)	-3.6	-18	9	-1	0	2047	5
CCOC(=O)C1CCCN(S(=O)(=O)c2ccc3c(c2)N(C(C)=O)CCO3)C1 (stereo not drawn)	-1.8	-13	3	15	-3	5555	-1
O=C(NC1CC1)c1cccc(S(=O)(=O)Nc2ccccc2F)c1	6.8	-3	16	2	7	u	-1
CCn1c(CSc2nnc(-c3ccoc3C)n2C)nc2cc(S(=O)(=O)N(C)C)ccc21	1.2	-27	7	9	0	u	4
COCC(=O)Nc1nc(-c2ccccc2)ns1	2.7	-27	1	-1	1	9673	-7
CCCCCOC(=O)Cn1c(N2CCOCC2)nc2c1c(=O)[nH]c(=O)n2C	7.2	1	5	12	1	3246	5
COc1ccc(-c2cc(C(F)(F)F)n3nc(C(=O)N4CCC5(CC4)OCCO5)cc3n2)cc1OC	2.7	-21	x	x	-1	2480	-2
CC(CN1CCC(O)CC1)c1ccccc1 (stereo not drawn)	-0.2	-12	4	-6	5	x	-2
COc1cc(/C=N/N(CCO)C2=NS(=O)(=O)c3ccccc32)cc(OC)c1OC	x	-1	x	x	x	3776	-5
C=CCn1c(SCC(=O)NNC(=O)Nc2cccc(Cl)c2)nnc1-c1ccccc1	-3.8	-38	9	9	-3	4192	0
O=C(c1cccs1)n1nc(-c2ccco2)nc1SCc1ccccc1	-1.1	x	0	10	1	x	-3

By substructure: the compounds so far containing a furan ring, fused or not
SMILES	Sa RN4220 lethal	PrP UTR inh	Mtb hypoxia inh	Mtb hypoxia inh growth	Sa ugtP lethal	Bead autofluor	BJeLR viability
CN(Cc1ccco1)C(=O)c1ccc(S(=O)(=O)N2CCCCCC2)cc1	-3.1	-8	-2	-4	-2	2843	x
O=C1CCCc2oc3ccc(O)cc3c21	7.8	-28	3	3	2	3227	0
CCn1c(CSc2nnc(-c3ccoc3C)n2C)nc2cc(S(=O)(=O)N(C)C)ccc21	1.2	-27	7	9	0	u	4
O=C(c1cccs1)n1nc(-c2ccco2)nc1SCc1ccccc1	-1.1	x	0	10	1	x	-3

Additional entries:
SMILES	Sa RN4220 lethal	PrP UTR inh	Mtb hypoxia inh	Mtb hypoxia inh growth	Sa ugtP lethal	Bead autofluor	BJeLR viability
O=C(c1ccco1)N1CCN(C(=O)C2CC(c3ccc(Cl)c(Cl)c3)=NO2)CC1 (stereo not drawn)	3.9	-4	7	4	-1	4333	-4
COc1ccc(NC(=O)C(=O)N/N=C/c2cccnc2)cc1	x	-11	x	x	x	4533	1
Cn1nc(C(=O)NCc2cccnc2)c2ccccc2c1=O	3.0	-4	4	5	-1	5843	0
CSc1nc(-c2ccccc2)cc(C)c1C#N	9.0	-19	7	7	7	4104	-1
O=C(CCNC(=O)c1ccc(Cl)cc1)Nc1cccc(S(=O)(=O)N2CCCCC2)c1	2.4	-28	2	11	-1	3544	x
Cc1c(NC(=S)NN=Cc2ccccc2O)c(=O)n(-c2ccccc2)n1C	3.4	x	8	-3	-2	x	x
Cc1cc(=O)cc(C)n1-c1ccc(Cl)c(Cl)c1	-3.6	-20	12	3	16	3447	-2
CCOC(=O)c1c(Nc2ccc(Cl)cc2)sc(/C=C2\C=Nc3ccccc32)c1O	x	-3	x	x	x	3549&10145	7
